# Compound activity as filed in PubChem BioAssay.
# KCNQ2 block – KCNQ2 potassium channel inhibitors, primary screen, cell-based, CHO-K1, FluxOR thallium flux, B-score (AID 2156); B-score at 10 µM; Potassium voltage-gated channel subfamily KQT member 2 (Rattus norvegicus), O88943; 310,000 compounds, 1.1% hits; 20 min; active compounds read low; only compounds with negative scores are shown here; some inactives read as strong as hits;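 active = fluorescence ratio B-score at most minus 3 library SDs, with starting brightness B-score within 2 library SDs, cut at about -5.5 in these data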
# Target sequence (O88943 whole entry, looked up): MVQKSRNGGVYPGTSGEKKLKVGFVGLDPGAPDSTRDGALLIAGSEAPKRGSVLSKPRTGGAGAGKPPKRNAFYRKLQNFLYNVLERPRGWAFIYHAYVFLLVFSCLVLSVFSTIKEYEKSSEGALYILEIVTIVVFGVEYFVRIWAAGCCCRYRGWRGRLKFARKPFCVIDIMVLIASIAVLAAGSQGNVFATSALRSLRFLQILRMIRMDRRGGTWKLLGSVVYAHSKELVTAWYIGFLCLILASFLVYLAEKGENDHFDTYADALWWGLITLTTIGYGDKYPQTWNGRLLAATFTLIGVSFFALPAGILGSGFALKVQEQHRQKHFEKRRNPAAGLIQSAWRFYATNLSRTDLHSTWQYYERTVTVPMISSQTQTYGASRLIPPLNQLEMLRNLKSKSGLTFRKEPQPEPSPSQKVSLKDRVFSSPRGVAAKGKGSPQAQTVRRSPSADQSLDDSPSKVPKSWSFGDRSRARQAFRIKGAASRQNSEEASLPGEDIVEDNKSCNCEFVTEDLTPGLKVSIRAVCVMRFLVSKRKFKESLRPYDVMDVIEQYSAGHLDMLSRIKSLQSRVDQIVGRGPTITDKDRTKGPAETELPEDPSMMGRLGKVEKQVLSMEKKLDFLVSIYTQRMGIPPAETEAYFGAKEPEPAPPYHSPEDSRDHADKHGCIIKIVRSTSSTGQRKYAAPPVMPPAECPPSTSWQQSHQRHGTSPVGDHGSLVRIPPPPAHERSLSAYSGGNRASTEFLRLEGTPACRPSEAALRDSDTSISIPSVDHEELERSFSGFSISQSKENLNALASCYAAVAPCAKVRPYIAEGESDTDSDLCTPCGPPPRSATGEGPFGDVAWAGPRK
# KCNQ2 block baseline – also measured in KCNQ2 block; calls as there; B-score; measured here: initial fluorescence intensity artifact check;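 brightness before thallium and not channel activity; 0 = typical well and far values either way flag optical interference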
# Starred values were filed as active, the others as inactive; i = inactive. Not all compounds are listed (hit frequency here may not be typical).
SMILES	KCNQ2 block	KCNQ2 block baseline
CC(C)c1cc(C(=O)Nc2cc(Cl)ccc2O)no1	i	-1.1
Cc1cc(C)nc(NC(=O)C(C)N2C(=O)c3ccccc3C2=O)n1 (stereo not given)	i	-0.13
Clc1ccc(C#Cc2cccnc2)cc1	i	2.9
Cc1coc2cc3oc(=O)c(CC(=O)N[C@@H](CC(C)C)C(=O)O)c(C)c3cc12	i	0.26
O=C(O)c1nn(CCOc2ccc(Br)cc2)c(=O)c2ccccc12	i	2.9
Cc1cc(=O)[nH]c(N/N=C/c2ccc3c(c2)OCCO3)n1	i	0.34
O=C(O)c1ccc(CNC(=S)Nc2ccccc2)cc1	i	1.8
CCc1ccccc1NC1c2ccccc2C(=O)N1c1cccnc1 (stereo not given)	i	-2.5
CCN(CC)CCN(C(=O)CCS(=O)(=O)c1ccccc1)c1nc2cc(OC)c(OC)cc2s1	i	0.23
O=C1CC(SCCc2nc3ccccc3[nH]2)C(=O)N1c1ccc(Cl)cc1 (stereo not given)	i	1.7
CCN1C(=O)CS/C1=N\S(=O)(=O)c1ccc(Cl)cc1	i	-0.59
S=c1[nH]nc(-c2cccs2)n1Cc1ccccc1	i	-0.74
C=CCn1c(SCCOc2ccc(OC)cc2)nnc1C(CO)NC(=O)c1ccc(OC)cc1 (stereo not given)	i	0.1
CN(C)c1ccc(C2(c3ccc(N(C)C)cc3)OC(=O)c3cc(N)ccc32)cc1	i	0.06
Cc1ccc(S(=O)(=O)N2CCC(C)CC2)cc1	i	0.07
Cc1ccc(NC(=O)CSc2nnc(CN3CCOCC3)n2C)cc1C	i	-2
CCOc1ncccc1C(=O)OCC(=O)c1cccc(Br)c1	i	0.26
CCOc1ccc(CNCCN2CCCC2)cc1	i	-0.54
CC1CCC(NC(=O)CC(C)(C)Cc2nc3ccccc3c(=O)[nH]2)CC1 (stereo not given)	i	0.52
Cn1c(=O)c2c(ncn2CC(=O)N/N=C/C=C/c2ccccc2[N+](=O)[O-])n(C)c1=O	i	0.26
O=[N+]([O-])c1ccccc1NCCOc1ccccc1	i	-0.97
Cc1ccc(-n2nc3c(c2NC(=O)/C=C\c2ccc4c(c2)OCO4)CSC3)c(C)c1	i	0.25
O=C(NC(=S)Nc1ccccc1Cl)c1cnn2c(C(F)(F)F)cc(C(F)(F)F)nc12	i	-0.62
CC1(c2nnc(Cc3ccccc3)o2)CC(c2ccccc2)=NO1 (stereo not given)	i	-0.55
Cc1onc(-c2ccccc2)c1C(=O)c1c[nH]c(C(=O)NCc2ccncc2)c1	i	2.2
Cc1ccc(-n2nc3c(c2NC(=O)c2c(-c4ccccc4Cl)noc2C)CSC3)cc1	-7.4*	-0.62*
CCN(CC)S(=O)(=O)c1ccc(N2CCN(C)CC2)c(NC(=O)COc2ccc(F)cc2Cl)c1	i	-0.56
CC1(C)S[C@@H]2[C@H](N=CN3CCCCCC3)C(=O)N2[C@H]1C(=O)O	i	-0.07
COc1ccccc1N1CCN(C(=O)c2ccccc2NC(=O)C2CCCCC2C(=O)O)CC1 (stereo not given)	i	0.15
O=C(CSc1nnnn1C1CCCC1)N1CCCCC1	i	-0.02
NC1=NC2(CCC(c3ccccc3)CC2)n2c(nc3ccccc32)N1 (stereo not given)	i	0.49
CC1CCCC(NC(=O)COC(=O)[C@@H](NC(=O)c2ccco2)C(C)C)C1C (stereo not given in full)	i	0.08

# Overlap with the part before: 6 compounds, then new ones.
SMILES	KCNQ2 block	KCNQ2 block baseline
CCN(CC)S(=O)(=O)c1ccc(N2CCN(C)CC2)c(NC(=O)COc2ccc(F)cc2Cl)c1	i	-0.56
CC1(C)S[C@@H]2[C@H](N=CN3CCCCCC3)C(=O)N2[C@H]1C(=O)O	i	-0.07
COc1ccccc1N1CCN(C(=O)c2ccccc2NC(=O)C2CCCCC2C(=O)O)CC1 (stereo not given)	i	0.15
O=C(CSc1nnnn1C1CCCC1)N1CCCCC1	i	-0.02
NC1=NC2(CCC(c3ccccc3)CC2)n2c(nc3ccccc32)N1 (stereo not given)	i	0.49
CC1CCCC(NC(=O)COC(=O)[C@@H](NC(=O)c2ccco2)C(C)C)C1C (stereo not given in full)	i	0.08
Cc1ccc(S(=O)(=O)C(c2ccccc2)c2c(C)noc2C)cc1 (stereo not given)	i	-0.52
O=C(CCN1C(=O)C2CCCCC2C1=O)Nc1nc(-c2ccccc2)cs1 (stereo not given)	i	-0.29
O=C(N/N=C\c1ccc(Br)cc1)c1ccc(Cn2cccn2)o1	i	-1.4
CCCc1nnc(SCC(=O)Nc2ccc(C(=O)OCC)cc2)o1	i	1.8
CCn1c(=O)n(CC)c2cc(S(N)(=O)=O)ccc21	i	-0.68
Cn1c(Oc2ccccc2NCc2cccc(Br)c2)cc(=O)n(C)c1=O	i	1.8
COc1cc(C(=O)N/N=C/c2ccccn2)cc(OC)c1OC	i	-1.6
COCCN(C(=O)COC(=O)C(c1ccccc1)c1ccccc1)c1c(N)n(Cc2ccccc2)c(=O)[nH]c1=O	i	0.43
CCOC(=O)C1=C(C)N=C2SCCC(=O)N2[C@@H]1/C=C/c1ccccc1	i	-3.2
CCCCNC(=O)N1CCN(c2ccccc2OCC)CC1	i	2.1
Cc1ccc[n+](-c2[nH]c(=O)sc2/C=N/NC(=O)c2ccccc2[O-])c1	i	-0.61
COc1cccc(C(=O)Nc2ccc3c(c2)C(=O)c2ccccc2C3=O)c1	i	-0.39
CCN(CC)S(=O)(=O)c1ccc(N2CCN(C)CC2)c(NC(=O)CSCC(=O)Nc2cccc(C)c2)c1	i	-1.6
COC(=O)c1cccc(N2C(=O)c3ccccc3S2(=O)=O)c1	i	0.4
CS(=O)(=O)N1CCC(C(=O)N2CCN(c3ccccc3F)CC2)CC1	i	-0.1
C1CCC(n2nnnc2CN2CCN(C3CCCC3)CC2)CC1	i	2.1
CCOc1ccccc1N1CCN(C(=O)C2c3ccccc3Oc3ccccc32)CC1	i	-0.11
CCOC(=O)C(C)Sc1nc(=O)n2ccccc2n1 (stereo not given)	i	1.4
O=C(c1ccco1)N1CCN(C(=O)c2sccc2-c2ccccc2)CC1	i	0.6
COC(=O)c1ccccc1NC(=O)CN(c1c(C)cccc1C)S(C)(=O)=O	i	1.7
NC1=C([N+](=O)[O-])C(c2ccc3c(c2)OCO3)C2=C(CCCC2=O)O1 (stereo not given)	i	-1.1
Cc1ccc(-n2nnnc2SCC(=O)N2CCN(C(=O)c3ccco3)CC2)c(C)c1	i	-2.2
CC1CCN(c2nc(N3CCCCC3)nc(N3CCCCC3)n2)CC1	i	0.83
CC(C)(CNC(=O)c1cccc(S(=O)(=O)NCc2ccccc2)c1)N1CCOCC1	i	-1.1
COc1ccccc1/C=C/C(=O)OCC(=O)Nc1ccc(Cl)cn1	i	-0.74
COc1ccc(NC(=O)/C(=C\c2cc(OC)c(OC)cc2[N+](=O)[O-])NC(=O)c2ccccc2)cc1	-7.2*	0.08*
O=C(COc1ccccc1Cl)Nc1cccnc1	i	-0.09
CSc1ccccc1NC(=O)CN(c1ccccc1)S(=O)(=O)N(C)C	i	-1.5
Clc1ccc2c(NCc3ccccc3)ccnc2c1	i	1.6
Cc1cccc2nc(CNc3ccc(F)cc3)cn12	i	1.2
C#CCSc1n[nH]c(=O)n1-c1cccc(C(F)(F)F)c1	i	2.7
O=C(CCCN1C(=O)c2cccc3cccc(c23)C1=O)N1CCc2ccccc2C1	i	-0.46
CCOC(=O)CCCN1CC(O)=C(c2nc3ccccc3s2)C1=N	i	-0.14
CN(CCC#N)c1ncnc2scc(-c3ccccc3)c12	i	0.45
CCOc1cc(C(=S)N2CCOCC2)ccc1OC(=O)c1ccc(C)cc1	i	1.6
CC(C)CN(C(=O)COC(=O)COc1ccc2ccccc2c1)c1c(N)n(Cc2ccccc2)c(=O)[nH]c1=O	i	-0.25
O=C(Nc1ccn([C@H]2CC[C@@H](CO)O2)c(=O)n1)c1ccccc1	i	-0.09
COC(=O)COc1ccc(S(=O)(=O)Nc2ccc3c(c2)OCCO3)cc1Cl	i	0.07
O=C(CN=C1NC(=O)C(c2ccccc2)(c2ccccc2)N1)NCc1ccc(F)cc1	i	1.3
Cc1c(C(=O)N/N=C/c2c(O)ccc3ccccc23)nnn1-c1nonc1N	i	-0.3
CCc1ccc(N2C(=O)CC(N3CCC(C(=O)OC)CC3)C2=O)cc1 (stereo not given)	i	1.4
Cc1cccc(CN2CCC(C(=O)Nc3cccc(-c4cccc(F)c4)c3)CC2)n1	i	-1.1
O=C(COc1ccc2c3c(c(=O)oc2c1)CCC3)NCCCN1CCCC1=O	i	-0.07
CCOC(=O)CCSc1nc(C(C)(C)C)cc(C(F)(F)F)c1C#N	i	0.01
O=C(CSc1nnc(-c2cc3ccccc3cc2O)n1Cc1ccco1)c1ccc(F)cc1	-5.9*	-0.03*
COCCN=c1scc(-c2ccc3c(c2)NC(=O)CO3)n1/N=C(\C)c1ccc(O)cc1	i	-0.43
Cc1ccccc1-c1nc(CS(=O)(=O)CC(=O)NC(C)c2ccccc2)c(C)o1 (stereo not given)	i	-0.97
Cc1cc2c3ccccc3ncn2n1	i	1.2
COc1ccc([N+](=O)[O-])cc1NC(=O)/C=C/C(=O)O	i	1.6
COc1cccc(NC(=O)CN(C)C(=O)c2ccc3ccccc3c2)c1	i	-0.63
O=C(Oc1cncc(Cl)c1)c1ccco1	i	-1.3
CCC(C)Sc1nnc(Cc2cc(=O)[nH]c(=O)[nH]2)n1-c1ccc(OC)cc1 (stereo not given)	i	-0.05
O=S(=O)(Nc1ccc(N2CCOCC2)cc1)c1ccc(F)cc1	i	0.1
O=C(COC(=O)CCc1nc2ccccc2s1)NC(=O)NCc1ccco1	i	2.2
O=C(/C=C/c1ccccc1[N+](=O)[O-])OCC(=O)c1ccccc1	i	-1
Cc1cc(C)n2nc(SCC(=O)Nc3ccc(O)cc3)nc2n1	i	-1.2

# More records
SMILES	KCNQ2 block	KCNQ2 block baseline
Cc1ccccc1Cn1ccc(NC(=O)c2onc(C)c2Cl)n1	i	-1.7
Cc1ccc(/C=N/NC(=O)Cn2cnc3ccccc32)o1	i	0.18
Cc1ccc(C(=O)N2CCc3ccccc32)cc1NC(=O)c1ccco1	i	-0.01
CCOc1ccc(C(c2c(C)n(C)n(-c3ccccc3)c2=O)c2c(C)n(C)n(-c3ccccc3)c2=O)c(O)c1	i	-0.44
O=C(O)c1ccc(CNCc2cccc(OCc3ccc(F)cc3)c2)cc1	i	0.08
CCOC(=O)Cc1csc(NC(=O)CSc2nnnn2-c2ccc(F)cc2)n1	i	0.72
Cc1ccccc1OCC(=O)Nc1cccc(N(C)S(C)(=O)=O)c1	i	-0.36
Brc1cc2c(cc1CN1CCc3ccccc3C1)OCO2	i	0.05
Cc1ccc(S(=O)(=O)CCc2nc3ccccc3s2)cc1C	i	-0.33
Nc1nn(S(=O)(=O)c2ccccc2)cc1-c1cccc([N+](=O)[O-])c1	i	-1.6
CCC(=O)N1CCc2cc(Br)cc(S(=O)(=O)NCCCN(C)Cc3ccccc3)c21	i	0.56
Cc1nc(N)c(C#N)c(-c2cccnc2)c1-c1ccccc1	i	1.8
CCCCOC(=O)N1CCOCCOCCOCC1	i	-2.6
COc1ccc(-c2cc(CCCC(=O)NCCc3ccccc3)no2)cc1	i	-0.22
Cc1cc(NS(=O)(=O)c2ccc(N3C(=O)C4C5C=CC(C5)C4C3=O)cc2)nc(C)n1 (stereo not given)	i	0.41
COc1cccc(-c2cc(C(=O)NCCCn3ccnc3)c3ccccc3n2)c1	i	3.8
COc1ccc(OCCSc2ncccn2)cc1	i	0.33
Nc1nc(-c2ccc3ccccc3c2)c(C2(O)C(=O)Nc3c(Br)cc(F)cc32)s1 (stereo not given)	i	0.45
COc1ccc(N2CC(C(=O)Nc3nnc(SCC(=O)N4CCOCC4)s3)CC2=O)cc1 (stereo not given)	i	-0.04
CCCN(CCC)CC(C)(C)NS(=O)(=O)c1ccc(Cl)cc1	i	1.3
CCN(CC)S(=O)(=O)c1ccc(N2CCOCC2)c(NC(=O)c2cccc(C#N)c2)c1	i	-0.02
O=C(NC1CC1)C1=C[C@@H](C2CC2)C[C@@H](OCc2ccc(CO)cc2)O1	i	-2.3
CCc1cc[n+](/C(C(=S)Nc2cccc(C)c2)=C(/[O-])c2ccc(C)c([N+](=O)[O-])c2)cc1	i	-0.91
COc1cccc(C(Nc2ccccn2)c2c(NC(=O)c3ccco3)sc(C)c2C)c1 (stereo not given)	i	0.43
CCOC(=O)c1ccccc1NC(=O)CSc1nnnn1C	i	0.52
CCC(=O)Nc1ccc(C(=O)N/N=C/c2ccc([N+](=O)[O-])cc2)cc1	i	-0.43
Cc1cccc(N2CCN(CCCNC(=O)C3CCCN(c4ncnc5c4nc4n5CCCCC4)C3)CC2C)c1 (stereo not given)	i	-1
CN(C)C(=O)COc1ccc2ccc(=O)oc2c1	i	0.1
Cc1ccc(S(=O)(=O)c2nc(S(=O)(=O)c3ccccc3)sc2N2CCN(C)CC2)cc1	i	0.28
CCOC(=O)CC(NC(=O)c1cc2cc(Cl)cc(Cl)c2oc1=O)c1cccc([N+](=O)[O-])c1 (stereo not given)	i	-1.4
C=CCN=C1NN=C(c2cc(C)n(CC=C)c2C)CS1	i	0.11
S=C(NCCc1ccccn1)NC1CC2CCC1C2 (stereo not given)	i	-0.82
CCCCN(c1ccccc1)S(=O)(=O)c1cccc(C(=O)O)c1	i	-1.6
O=c1c2cc(NC(=S)NC3CCN(Cc4ccccc4)CC3)ccc2nc2n1CCCCC2	i	-0.21
